N370S GC mod = inhibits or activates N370S mutant glucocerebrosidase. Potency, µM (doses to about 59.4 µM), without a hit: at the top dose activity change, negative = inhibition, most hits filed as inhibitors. 330,000 compounds, 0.092% hits. N370S GC spleen homogenate, 4MU-glucoside fluorescence. P04062; active = well fitted inhibition curve with a large enough effect; inconclusive = small, poorly fitted or top-dose-only effect, or effect the other way, or another doubt; inactive = no such curve, though single readings can be large or run the other way;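 also: 0% = full enzyme activity and -100% = no enzyme basal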
* = called active by the depositor; ? = inconclusive; & = joins results of further samples; [ ] = another dose, or the depositor's remark. Potency is read from the fitted curve at half-maximal effect.

SMILES	N370S GC mod
CN(C(=O)Cc1ccccc1)[C@H](CN1CCCC1)c1ccccc1	7%&-5%
CC(=O)OC1N=C(c2ccc(Cl)cc2)c2cc(Br)ccc2NC1=O (stereo unspecified)	-9%
O=C1c2ccccc2C(=O)N1Cc1nc2ccccc2c(=O)n1-c1cccnc1	5%
O=C(c1ccncc1)C12CN3CN(CN(C3)C1)C2	1%
Cc1cc(C)cc(N2C(=O)NC(=O)/C(=C\c3cccn3-c3ccc(Cl)cc3)C2=O)c1	-20%
CP(C)(=O)CCC(=O)O	5%
O=P(Nc1cccc(Cl)c1)(Oc1ccccc1)Oc1ccccc1	17%
O=C1NC(=O)N(c2ccc(F)cc2)C(=O)/C1=C/c1ccc(N2CCOCC2)cc1	5%
Cc1nc2c(-c3ccccc3)c(C)nn2c(C)c1CCC(=O)N1CCC2(CC1)OCCO2	-4%
Cc1c(C(=O)Nc2ccccc2)cc(-c2ccccc2)n1CCCN1CCOCC1	-22%
CCCN1CCC[C@H](c2cccc(O)c2)C1	-14%&5%
CCOC(=O)N(C)c1ccc(C(O)(C(=O)OC)C(F)(F)F)cc1 (stereo unspecified)	-10%
O=C(O)c1nonc1-c1nonc1C(=O)O	-11%
COc1ccc(CCNCc2ccc(OC)c(OC)c2OC)cc1	19%[12.8 µM]
COc1ccc(C[C@H]2NC[C@H](O)[C@@H]2OC(C)=O)cc1	-12%
Cc1ccc(CN2CC3CC(C2)c2cccc(=O)n2C3)cc1 (stereo unspecified)	0%
CCC(C(=O)N1CCC2(CC1)OCCO2)n1c2ccccc2c2nc(=O)cc(C)n21 (stereo unspecified)	-6%
Cc1sc2ncn(CC(=O)NCCCC(=O)N3CCC4(CC3)OCCO4)c(=O)c2c1C	-3%
O=C1NC(=O)N(CCNc2ncc(C(F)(F)F)cc2Cl)C(=O)C1/C=N/OCc1c(F)cccc1Cl (stereo unspecified)	-1%
Cc1ccsc1C(=O)C1CCCN(Cc2cccc(-n3cccn3)c2)C1 (stereo unspecified)	-6%
Cn1c(C(=O)N2CCC(C(=O)N3CCC4(CC3)OCCO4)CC2)cc2sccc21	-9%
CCc1ccc(CNCCc2ccccc2F)cc1	-1%
Fc1ccc(C2N3CCCN23)cc1 (stereo unspecified)	6%
Nc1nonc1OCCCCOc1nonc1N	-8%
Cc1ccc(-c2nc(N(C)C3CCN(C)CC3)c3ccccc3n2)cc1	-1%

Part of the list above, with bars between the fields:
molecule | N370S GC mod
CN(C(=O)Cc1ccccc1)[C@H](CN1CCCC1)c1ccccc1 | 7%&-5%
CC(=O)OC1N=C(c2ccc(Cl)cc2)c2cc(Br)ccc2NC1=O (stereo unspecified) | -9%
O=C1c2ccccc2C(=O)N1Cc1nc2ccccc2c(=O)n1-c1cccnc1 | 5%
O=C(c1ccncc1)C12CN3CN(CN(C3)C1)C2 | 1%
Cc1cc(C)cc(N2C(=O)NC(=O)/C(=C\c3cccn3-c3ccc(Cl)cc3)C2=O)c1 | -20%
CP(C)(=O)CCC(=O)O | 5%
O=P(Nc1cccc(Cl)c1)(Oc1ccccc1)Oc1ccccc1 | 17%
O=C1NC(=O)N(c2ccc(F)cc2)C(=O)/C1=C/c1ccc(N2CCOCC2)cc1 | 5%
Cc1nc2c(-c3ccccc3)c(C)nn2c(C)c1CCC(=O)N1CCC2(CC1)OCCO2 | -4%
Cc1c(C(=O)Nc2ccccc2)cc(-c2ccccc2)n1CCCN1CCOCC1 | -22%
CCCN1CCC[C@H](c2cccc(O)c2)C1 | -14%&5%
CCOC(=O)N(C)c1ccc(C(O)(C(=O)OC)C(F)(F)F)cc1 (stereo unspecified) | -10%
O=C(O)c1nonc1-c1nonc1C(=O)O | -11%
COc1ccc(CCNCc2ccc(OC)c(OC)c2OC)cc1 | 19%[12.8 µM]
COc1ccc(C[C@H]2NC[C@H](O)[C@@H]2OC(C)=O)cc1 | -12%
Cc1ccc(CN2CC3CC(C2)c2cccc(=O)n2C3)cc1 (stereo unspecified) | 0%
CCC(C(=O)N1CCC2(CC1)OCCO2)n1c2ccccc2c2nc(=O)cc(C)n21 (stereo unspecified) | -6%
Cc1sc2ncn(CC(=O)NCCCC(=O)N3CCC4(CC3)OCCO4)c(=O)c2c1C | -3%
O=C1NC(=O)N(CCNc2ncc(C(F)(F)F)cc2Cl)C(=O)C1/C=N/OCc1c(F)cccc1Cl (stereo unspecified) | -1%
Cc1ccsc1C(=O)C1CCCN(Cc2cccc(-n3cccn3)c2)C1 (stereo unspecified) | -6%
Cn1c(C(=O)N2CCC(C(=O)N3CCC4(CC3)OCCO4)CC2)cc2sccc21 | -9%
CCc1ccc(CNCCc2ccccc2F)cc1 | -1%

Next section:
SMILES	N370S GC mod
O=C1/C(=C/c2ccncc2)N2CCC1CC2	-1%
CCCC(=O)NC(Oc1ccc(C(C)=O)cc1)C(Cl)(Cl)Cl (stereo unspecified)	1%
Cc1ccc(-c2nc3ccccc3c(=O)n2-c2cccnc2)cc1	3%
O=C1NC(=O)N(Cc2ccccc2)C(=O)/C1=C/C=C/c1ccco1	20%
CC(Cc1ccccc1Sc1ccccc1)N(C)C (stereo unspecified)	8%
C[C@@]12CCC3C(CCC4=CC(=O)CC[C@]43C)C1CCC2O (stereo partly specified)	?
Cc1sc2nc(COC(=O)Cc3ccccc3)[nH]c(=O)c2c1C	9%
CCOP(=S)(OCC)Oc1cc(C)nc(C(C)C)n1	-3%
CCOC(=O)C1=C(C)N(C)C2(C)CC1c1ccccc1O2 (stereo unspecified)	9%
CCOC(=O)CC1=C(C(=O)OCC)C2(C(=O)N1CC(=O)OC)C(C#N)=C(N)Oc1ccccc12 (stereo unspecified)	-8%
Cc1ccccc1-n1c(-c2ccoc2)nc2ccccc2c1=O	7%
O=C(CS(=O)C(c1ccccc1)c1ccccc1)NO (stereo unspecified)	-10%
Cc1ccc(CN2C(=O)NC(=O)C3(Cc4c(nc5ccccn5c4=O)N4CCCCCC43)C2=O)cc1 (stereo unspecified)	10%
NCCCN1CCN(c2ccccc2)CC1	-1%
Cc1cc(OC(C)C(=O)NCC(O)c2ccccc2)c2c3c(c(=O)oc2c1)CCC3 (stereo unspecified)	-9%
CC1=C(C(=O)OC(C)C)[C@]2(C(=O)N(CC(N)=O)c3ccccc32)C(C#N)=C(N)O1	3%
Cc1ccc(/C=C2/C(=O)NC(=O)N(CCc3ccc(F)cc3)C2=O)o1	12%
COC(=O)CN1CN(c2ccccc2)C2(CCN(Cc3ccc4ccccc4c3)CC2)C1=O	-6%
Cc1ccc2c(c1)C1CN(C)CCC1N2C(=S)Nc1cccnc1 (stereo unspecified)	-2%
Cc1ncc([N+](=O)[O-])n1CCOc1nonc1N	7%
Cc1cc(/C=C2\C(=O)NC(=O)N(c3cccc(F)c3)C2=O)c(C)n1-c1cc(C(=O)O)cc(C(=O)O)c1	2%
Cc1ccccc1-n1c(C)nc2ccccc2c1=O	11%
COc1nc(NC(C)C)nc(NC(C)C)n1	4%&1%
C=CC[N+]1(C)C2CCC1CC(O)C2 (stereo unspecified)	7%
O=C1/C(=C\c2ccncc2)N2CCC1CC2	-3%

2 entries from above in a different format:
| SMILES | N370S GC mod |
| --- | --- |
| CCOC(=O)N(C)c1ccc(C(O)(C(=O)OC)C(F)(F)F)cc1 (stereo unspecified) | -10% |
| O=C(O)c1nonc1-c1nonc1C(=O)O | -11% |

The results go on.
SMILES	N370S GC mod
Cn1c(=O)c2c(ncn2CCCl)n(C)c1=O	-4%
CCc1cccc2c(C#N)cn(CC(=O)N3CCOCC3)c12	2%
C[N+]1=C(/C=C/Nc2ccccc2)C(C)(C)c2ccccc21	6%
COC1(CS(=O)c2ccccc2)CCN(CCc2c[nH]c3ccc(F)cc23)CC1 (stereo unspecified)	9%
O=C1NC(=S)NC(=O)C12C(c1ccc(F)cc1)NC(=S)NC2c1ccc(F)cc1 (stereo unspecified)	-22%
COc1cc2c(cc1OC)C(C)NCC2 (stereo unspecified)	4%&-1%&8%
C[N+]12CCC(CC1)C(=C(c1ccccc1)c1ccccc1)C2	16%
COc1ccc(N=Nc2c(O)[nH]c(=S)[nH]c2=O)cc1	-4%
CN1C(=O)C(=Cc2ccccc2Oc2ccc(Cl)cc2)C(=O)N(C)C1=O	3%
c1cncc(C2=NCCC2)c1	4%
C[C@]12CC[C@H]3[C@@H](CCC4=CC(=O)CC[C@@]43C)[C@@H]1CC[C@@H]2O	?
Cc1nc2ccccc2c(=O)n1-c1ccc([N+](=O)[O-])cc1	-1%
CN1CC[C@@H]2CN3CCc4cccc(c43)[C@@H]2C1	2%
C[N+](C)(C)CC(=O)[O-]	-7%
Clc1ccccc1CN1CCN(c2cccc3[nH]ccc23)CC1	2%
Cc1ccc(S(=O)(=O)N2CC2(C)CCl)cc1 (stereo unspecified)	6%
CC[N+](CC)(CC)CC	3%&12%
Cc1ccc(OCC(=O)N2CCN(Cc3ccc([N+](=O)[O-])cc3)CC2)cc1	-9%
CN1C(=O)C(=Cc2ccc(OCC(=O)Nc3ccccc3)cc2)C(=O)N(C)C1=O	2%
F/C(COc1ccc2c(c1)[nH]c1ccccc12)=C1/CN2CCC1CC2	?
COc1ccc(CNC(=O)C(NC(C)=O)C(C)C)cc1OC (stereo unspecified)	23%
C[N+]1(C)CCN(c2ccccc2)CC1	1%&0%&-4%
CSc1ccc(C(=O)C2CCCN(Cc3cnc(SC)nc3)C2)cc1 (stereo unspecified)	-7%
CC[C@H](C)[C@H](NC(=O)[C@H](CCCN=C(N)N)NC(=O)[C@H](CCCN=C(N)N)NC(=O)[C@H](CC(C)C)NC(=O)[C@H](Cc1ccccc1)NC(=O)CNC(=O)CNC(=O)[C@@H](N)Cc1ccc(O)cc1)C(=O)O	5%
CCOc1ccccc1-n1c(O)c(C=Nc2ccc(N(CC)CC)cc2)c(=O)[nH]c1=O	1%
SMILES	N370S GC mod
Cc1ccc2c(c1)CNc1ccccc1O2	8%
CN1c2ccccc2Oc2ccccc21	4%
Cc1occc1C(=O)N1CCC2(CC1)OCCO2	-5%
CCNCCNc1ccc([N+](=O)[O-])c2cccnc12	-12%
O=C(Cc1ccc(Cl)c(Cl)c1)NCC1(N2CCOCC2)CCCCC1	-10%
O=C(c1cc(S(=O)(=O)N2CCCCC2)ccc1F)N1CCC2(CC1)OCCO2	0%
CCn1c(O)c(/C(C)=N/N2CCCCC2c2cccnc2)c(=O)[nH]c1=S (stereo unspecified)	2%
O=C(CSc1ccccc1)N1CCC2(CC1)OCCO2	3%
CC(C)(C)N1Cc2ccccc2C1=N	-18%
O=C(Nc1cccc(OC(=O)N2CCOCC2)c1)N1CCOCC1	3%
O=[N+]([O-])/C=C1/NCCN1Cc1ccc(Cl)nc1	-3%
CN1CC(CNC(=O)OCc2ccccc2)CC2c3cccc4c3c(cn4C)CC21 (stereo unspecified)	-10%
CC1CC(C)CN(CC(=O)c2ccc(OC(F)F)cc2)C1 (stereo unspecified)	5%
COc1ccc(C[C@H]2NC[C@H](O)[C@H]2OC(C)=O)cc1	-5%
O=[N+]([O-])c1cc(F)c(N2CCCC2)cc1Br	14%
CCOc1cc(/C=C2\C(=O)NC(=O)N(C)C2=O)cc([N+](=O)[O-])c1O	2%
O=C1NC(=O)N(Cc2ccco2)C(=O)/C1=C\c1cccn1CCOc1ccc(Cl)cc1	13%
CC(=O)N1CCN(c2ccc([N+](=O)[O-])cc2C=C2C(=O)NC(=O)NC2=O)CC1	-21%
CC[n+]1c(/C=C/N(C)c2ccccc2)sc2ccc(Cl)cc21	-8%
O=C1C2CCN(CC2)C1Cc1ccc(OCc2ccccc2)cc1 (stereo unspecified)	-5%
COc1ccc2[nH]c3c(c2c1)CCNC3	-7%&-3%
CC(C)(C)n1cc(C(=O)c2ccc3ccccc3c2O)cn1	15%
CCOP(=O)(OCC)c1cccc(O)c1	7%
O=C1N(c2nncs2)CCN1[N+](=O)[O-]	11%
C/C(=N\NC(=S)Nc1ccccc1)c1c(O)n(C)c(=O)n(C)c1=O	11%

Screens (PubChem BioAssay)

The list is partial; most or all hits stand in other tables.
